# Screens deposited in PubChem by several laboratories.
# RanGTP-Imp inh = disruptors of Ran-importin-beta complex formation – biochemical, FRET, CFP-Ran, YFP-importin-beta, homogeneous, primary screen; 1.1% of 300,000 active; cell-free CFP-Ran/YFP-importin-beta FRET ratio; inhibition, % (test concentration not listed);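 active = most replicates above 15%; inconclusive = exactly half above 15%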;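 also: 0% = DMSO wells and 100% = Ran loaded with GDP instead of GTP; wells of about 40 µL received 100 nL stock; the first replicate is given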
# T cruzi inh = blocks replication of Trypanosoma cruzi; T. cruzi beta-gal in NIH3T3, luminescence, 90 h; inhibition, % (concentration not given with the values); 1.4% of 300,000 active;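 active = mean inhibition across valid replicates above about 55%, limit read from the data; inconclusive = mean below that limit but half or more replicates reach it; inactive = mean below it, under half of replicates reach it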;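 also: signal also drops with host cell toxicity which is not excluded here; 0% = plate median of DMSO wells and 100% = zero luminescence signal; higher percent means less beta-gal luminescence so fewer parasites; stock transfer was 50 nL into about 50 µL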
# UCH37 DUB inh = blocks the human deubiquitinase UCH37; Q9Y5K5; purified proteasome/UCH37, Ub-AMC cleavage fluorescence; inhibition, % (test concentration not listed); 0.33% of 330,000 active;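 active = mean of two replicates above 20%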;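 also: 0% = compound-free wells with enzyme and 100% = wells lacking proteasome; stock transfer was 100 nL into about 20 µL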
#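 Material: Human UCH37 enzyme supplied as purified proteasome complex | Schedule: 30 min compound-proteasome preincubation then 25 min substrate reaction, room temperature | Detection: AMC fluorescence from Ub-AMC cleavage, excitation 355 nm, emission 460 nm | Benchmarks: Wells without proteasome as full block, compound-free enzyme plus substrate as uninhibited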
# LANA-H2A inh = blocks KSHV LANA binding to histone H2A/H2B; AID 2629; inhibition, % (no concentration beside the values); Q9QR71; cell-free LANA-H2A/H2B peptide, fluorescence polarization; 0.6% of 320,000 active; in the data active = inhibition mostly above about 10%, no sharp cut-off; inactive = mostly below about 6.7%;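 also: stock transfer was 7.5 nL into about 10 µL; 0% = median of vehicle wells and 100% = median of positive control wells; one replicate is shown; the record names a cut of 25% in any replicate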
# Target sequence (Q9QR71 whole entry, looked up): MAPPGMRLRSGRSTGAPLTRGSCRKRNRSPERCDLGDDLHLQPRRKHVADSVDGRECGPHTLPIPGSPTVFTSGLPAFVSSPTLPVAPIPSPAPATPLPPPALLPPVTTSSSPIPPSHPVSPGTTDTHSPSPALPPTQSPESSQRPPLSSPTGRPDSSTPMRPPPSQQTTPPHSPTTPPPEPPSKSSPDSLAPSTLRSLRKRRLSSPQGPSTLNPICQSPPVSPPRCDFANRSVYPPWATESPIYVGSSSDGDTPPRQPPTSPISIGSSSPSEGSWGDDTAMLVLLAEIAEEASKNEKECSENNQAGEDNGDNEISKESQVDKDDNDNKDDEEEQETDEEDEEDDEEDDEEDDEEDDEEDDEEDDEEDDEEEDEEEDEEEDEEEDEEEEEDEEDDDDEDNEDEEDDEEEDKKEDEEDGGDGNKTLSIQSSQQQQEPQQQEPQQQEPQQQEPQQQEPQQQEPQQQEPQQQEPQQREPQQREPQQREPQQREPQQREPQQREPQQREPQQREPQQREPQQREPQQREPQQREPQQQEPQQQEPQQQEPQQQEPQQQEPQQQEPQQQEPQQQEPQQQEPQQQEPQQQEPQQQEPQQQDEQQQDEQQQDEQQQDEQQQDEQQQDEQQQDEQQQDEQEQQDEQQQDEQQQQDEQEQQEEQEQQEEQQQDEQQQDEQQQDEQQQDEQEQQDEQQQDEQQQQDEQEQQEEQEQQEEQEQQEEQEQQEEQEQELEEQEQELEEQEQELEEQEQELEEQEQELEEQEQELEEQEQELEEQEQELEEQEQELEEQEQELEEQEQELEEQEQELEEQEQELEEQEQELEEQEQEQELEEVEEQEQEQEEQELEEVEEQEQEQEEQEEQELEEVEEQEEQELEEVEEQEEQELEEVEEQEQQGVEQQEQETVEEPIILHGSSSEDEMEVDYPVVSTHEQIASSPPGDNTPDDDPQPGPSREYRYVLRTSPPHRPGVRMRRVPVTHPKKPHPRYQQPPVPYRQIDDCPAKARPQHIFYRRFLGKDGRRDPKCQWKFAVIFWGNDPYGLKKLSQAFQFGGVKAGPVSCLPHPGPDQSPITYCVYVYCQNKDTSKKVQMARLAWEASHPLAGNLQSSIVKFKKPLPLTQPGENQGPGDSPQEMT
# Beta apoptosis = blocks beta cell apoptosis; protection from apoptosis, % (no concentration beside the values); INS-1E cytokine-induced death, ATP luminescence, 48 h; percent of positive-control rescue, neutral wells zero; 0.8% of 300,000 active;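 active = all replicates at 75% or more, or half of them and the mean; inconclusive = half reach 75% but not the mean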;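 also: 0% = cytokine-treated negative control wells and 100% = positive control rescue; higher means more ATP so stronger rescue from cytokine killing; wells of about 40 µL received 100 nL stock; the first replicate is given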
# Calb FLC = C. albicans growth modulation with fluconazole. C. albicans CaCi-2 (fluconazole-resistant clinical isolate) + fluconazole, Alamar Blue growth, 48 h. growth inhibition, % (no concentration beside the values). 0.57% of 300,000 active;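 active = most replicates above 75%; inconclusive = exactly half above 75%; inactive = most below 75%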;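 also: all wells also contain fluconazole at 8 µg/ml as a sub-toxic cotreatment; 0% = median of DMSO wells and 100% = median of geldanamycin control wells; wells of about 8 µL received 7.5 nL stock; the first replicate is given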
# B2AR ag = activates human beta-2 adrenergic receptor causing internalization | P07550 | Am2.2-beta2AR cells, FAP receptor internalization, flow cytometry; reference of the scale not given here | response, % (test concentration not listed) | 0.43% of 340,000 active | AID 504454;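 active = response above a set limit, near 3 SD of response in nonfluorescent compounds, cut at about 42% in these data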;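 also: stock transfer was 100 nL into about 11 µL; a reference agonist was the positive control; negative values mostly stem from fluorescent compounds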
# Bfl-1 A1 inh = inhibitors of the anti-apoptotic protein A1, read as caspase activation | caspase activation, % (no concentration beside the values) | AID 2462 | MEF A1-2A-BIM cells, Caspase-Glo 3/7 luminescence, 3 h; percent of clofoctol response, vehicle zero | 0.066% of 330,000 active;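 active = over half of replicate activation scores above 10%, or exactly half above 10 with the replicate mean above 10; inconclusive = replicate mean below 10 yet half the replicates above 10; inactive = over half of replicates below 10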;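 also: wells of about 30 µL received 50 nL stock; many hits fall short of the cut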
# * = called active by the depositor; i = inactive; u = inconclusive; x = no result given; & = joins results of further samples. Not all compounds are listed; the hit share may differ from the screen's.
# Values run as follows: RanGTP-Imp inh, T cruzi inh, UCH37 DUB inh, LANA-H2A inh, Beta apoptosis, Calb FLC, B2AR ag, Bfl-1 A1 inh
C#C[C@@]1(O)CCC2C3CCC4=C/C(=N/OCC(=O)NC(CCC(N)=O)C(=O)O)CC[C@]4(C)C3CC[C@@]21C (some centres not stated)
  u, -2, x, -0.7, -6, -1, -4, 0.1
CCN(CC)C(=O)Cn1cc(C=C2C(=O)N(C)C(=O)N(C)C2=O)c2ccccc21
  1.8, 3, 3.8, -7.7, 1, -7, -2, 0.0
COc1ccc(-n2c(-c3ccccc3[N+](=O)[O-])nc3ccccc3c2=O)cc1
  11, -19, 2.0, 1.1, 6, 1, -3, -0.6
COCc1c(CN)cnc(C)c1N
  0.5, -1, -0.7, -0.2, 1, 7, 3, -0.8
COc1ccc(CCN(C)Cc2ccncc2)cc1OC
  -2.3, 45, 2.0, -2.4, 1, 27, 4, 0.2
COc1c(C)cc(C(=O)C2CCCN(Cc3cccc(C)n3)C2)cc1C (configuration not stated)
  -3.1, 17, 1.0, 1.9, 4, -13, -2, 0.6
CN(C)CC1CCCCC1=O (configuration not stated)
  -3.6, 5, 6.4, -4.3, -6, 2, 3, -0.1
CCN(CC)P(=S)(c1c(C)nc2ccccn12)c1c(C)nc2ccccn12
  3.6, -6, 3.0, 0.9, -2, 27, 5, 1.2
CC(C)Oc1cccc(NC(=O)c2cccn(Cc3ccc4c(c3)OC(F)(F)O4)c2=O)c1
  2.5, 24, 2.4, 0.3, 3, 6, 11, -0.6
O=C(O)C1C2CC3CC(C2)CC1(n1ncc(N2CCC4(CC2)OCCO4)c(Cl)c1=O)C3 (configuration not stated)
  -1.9, -5, 11, -3.5, -7, -1, 1, -0.4

# Next part:
# Values run as follows: RanGTP-Imp inh, T cruzi inh, UCH37 DUB inh, LANA-H2A inh, Beta apoptosis, Calb FLC, B2AR ag, Bfl-1 A1 inh
CC(NC(C)(C)C)C(=O)c1cccc(Cl)c1 (configuration not stated)
  3.4&6.6, -2&-1, 0.5&2.4, -0.4&-2.3, -1, -4&-3, -7, 0.2&0.4
FCCN(CCF)c1cccc(Cl)c1
  0.3, -11, 0.4, -2.9, 4, 0, x, 1.5
Cc1cccc(-n2c(O)c(/C=C3/C(c4ccccc4)=Nc4ccccc43)c(=O)[nH]c2=O)c1
  2.0, -13, 2.8, 86*, 19, 28, 23, 1.4
O=C(NCC(c1cccnc1)N1CCN(c2ccc(F)cc2)CC1)Oc1ccccc1 (configuration not stated)
  0.6, 45, -2.0, 9.9, -7, -6, -1, 0.6
CCC(C)n1c(O)c(C=NCCN2CCOCC2)c(=O)[nH]c1=S (configuration not stated)
  3.3, -3, 9.4, -6.7, 8, 1, 2, -0.4
O=P1(Oc2ccccc2)CC=C[C@H](COCc2ccccc2)O1 (some centres not stated)
  -4.2, -23, -1.4, 6.6, -2, -12, 1, 0.0
Cc1ccc(C(=O)C2CN3CCC2CC3)cc1 (configuration not stated)
  2.6, -18, -1.1, -3.9, -6, -3, 18, -1.1
CC1=NN(c2ccccc2)C(=O)C1/C=C1\C(=O)NC(=O)N(c2ccc(C)c(C)c2)C1=O (configuration not stated)
  3.1, -1, 6.7, -3.2, -2, -7, -1, 0.8
COC(=O)CC(NC(=S)N1CC2C[C@@H](C1)Cn1c2cccc1=O)C(=O)OC (some centres not stated)
  1.9, -5, 0.3, 0.2, -2, -2, -3, -0.4
O=[N+]([O-])c1cc(F)c(N2CCCC2)cc1Br
  3.8, -21, 1.9, 4.1, 25, 5, -17, 0.5

# 3 of the compounds above, in CSV form:
SMILES,RanGTP-Imp inh,T cruzi inh,UCH37 DUB inh,LANA-H2A inh,Beta apoptosis,Calb FLC,B2AR ag,Bfl-1 A1 inh
COCc1c(CN)cnc(C)c1N,0.5,-1,-0.7,-0.2,1,7,3,-0.8
COc1ccc(CCN(C)Cc2ccncc2)cc1OC,-2.3,45,2.0,-2.4,1,27,4,0.2
COc1c(C)cc(C(=O)C2CCCN(Cc3cccc(C)n3)C2)cc1C (configuration not stated),-3.1,17,1.0,1.9,4,-13,-2,0.6

# Further structures follow:
# Values run as follows: RanGTP-Imp inh, T cruzi inh, UCH37 DUB inh, LANA-H2A inh, Beta apoptosis, Calb FLC, B2AR ag, Bfl-1 A1 inh
COc1ccccc1NC1(C#N)CCCCC1
  3.8, -12, 2.6, 0.3, -2, 2, 9, -0.4
O=C(c1ccc(C(F)(F)F)cc1)C1CCCN(C2CCSCC2)C1 (configuration not stated)
  -1.4, 4, -1.1, -6.0, 4, -10, 3, -0.2
Cc1ccc(CNC(=O)COC(=O)c2nc(-c3ccccc3)oc2C)cc1
  x, x, 1.5, 0.4, -1, x, 10, 0.1
COCCCn1c(N)c(C(=O)Nc2sc3c(c2C(=O)OC)CCCC3)c2nc3ccccc3nc21
  12, -9, 6.1, -1.2, 11, 2, -10, 0.1
Cc1cccc2c(CCN)c[nH]c12
  0.9, 6, 4.7, -1.0, -4, -5, -8, 0.8
CC12CCC3C(CC=C4CC(O)CCC43C)C1C/C(=C\c1cccc(F)c1)C2=O (configuration not stated)
  -1.1, 3, 1.6, 2.8, 3, -1, 19, 0.4
COc1ccc(-n2c(SC)nc3ccccc3c2=O)cc1
  3.6, 2, 3.1, 2.6, -16, 28, -2, 1.3
CCN(CC)C(=O)c1ccc(NC(=O)c2cc(S(=O)(=O)N3CCCCCC3)ccc2OC)cc1
  -1.3, 28, 5.7, 2.2, 4, 2, -4, 0.6
Cc1ccc(-c2nn(Cc3ccccc3)cc2C=O)cc1
  0.3, 9, 3.0, -5.7, -3, 2, 7, 0.7
O=c1[nH]c(O)c(C=NC2CCN(Cc3ccccc3)CC2)c(=O)[nH]1
  4.6, 15, -0.9, 2.9, -4, x, 4, 1.0

# Structures from the list above containing a Cl atom (3):
# Values run as follows: RanGTP-Imp inh, T cruzi inh, UCH37 DUB inh, LANA-H2A inh, Beta apoptosis, Calb FLC, B2AR ag, Bfl-1 A1 inh
O=C(O)C1C2CC3CC(C2)CC1(n1ncc(N2CCC4(CC2)OCCO4)c(Cl)c1=O)C3 (configuration not stated)
  -1.9, -5, 11, -3.5, -7, -1, 1, -0.4
CC(NC(C)(C)C)C(=O)c1cccc(Cl)c1 (configuration not stated)
  3.4&6.6, -2&-1, 0.5&2.4, -0.4&-2.3, -1, -4&-3, -7, 0.2&0.4
FCCN(CCF)c1cccc(Cl)c1
  0.3, -11, 0.4, -2.9, 4, 0, x, 1.5

# Other results:
# Values run as follows: RanGTP-Imp inh, T cruzi inh, UCH37 DUB inh, LANA-H2A inh, Beta apoptosis, Calb FLC, B2AR ag, Bfl-1 A1 inh
CC1CC(C)CN(CC(=O)c2ccc(OC(F)F)cc2)C1 (configuration not stated)
  1.3, 10, 5.8, -2.1, 3, -5, -4, -0.6
COC(=O)C1=C(c2ccc(-c3ccccc3)c(F)c2)C[C@@H]2CC[C@H]1N2C(=O)NC1CCCCC1
  x, x, 0.0, 0.7, 22, x, -8, 1.5
COc1cc(CC(=O)N2C[C@H]3C[C@@H](C2)c2cccc(=O)n2C3)cc(OC)c1OC
  x, x, 1.7, -0.7, -7, x, -2, -0.1
COc1ccc(C[C@H]2NC[C@H](O)[C@H]2OC(C)=O)cc1
  -1.1, 44, -0.7, -2.3, 51, x, 94*, 7.5*
O=C(/C=C/c1ccc(Br)cc1)NC(=S)N1C[C@H]2C[C@H](C1)c1cccc(=O)n1C2
  -0.1, 0, 3.0, 2.8, -2, 3, 1, 0.1
c1ccc2c(CNC3CCCCCC3)c[nH]c2c1
  x, x, 4.0, 2.4, 50, x, 18, 0.3
N#CC[N+]1(CCCNP2(=O)C=C(c3ccccc3)OC(c3ccccc3)=C2)CCOCC1
  2.3, 10, -1.5, -0.3, 3, 8, -7, -0.2
FC(F)(F)c1ccc(CNCCc2c[nH]c3ccccc23)cc1
  1.5, -5, 1.0, 0.0, 0, 1, 7, -0.6
COC(=O)C1=C(c2c(C)noc2C)C[C@@H]2CC[C@H]1N2C(=O)NCc1ccc(F)cc1
  x, x, 0.0, 1.1, -6, x, -5, 0.6
O=C(O)c1cc[c]([Hg][Cl])cc1
  x, x, x, 3.8, 1, x, -2, -0.1

# Later entries.
# Values run as follows: RanGTP-Imp inh, T cruzi inh, UCH37 DUB inh, LANA-H2A inh, Beta apoptosis, Calb FLC, B2AR ag, Bfl-1 A1 inh
O=Cc1cn(Cc2ccc(F)cc2Cl)c2ccccc12
  -1.4, -22, 0.8, -3.5, 3, 5, -5, -1.0
Cc1nc2ccc(P(=O)(O)O)cc2s1
  0.3, -16, -0.1, -4.9, -6, -4, x, -0.5
C=CCn1c(O)c(C(CC)=NC(C)c2ccccc2)c(=O)[nH]c1=O (configuration not stated)
  -2.2, 2, 0.5, 0.3, 5, -2, 34, -0.1
COc1c(C)cc(C(=O)C2CCCN(Cc3cnc(C)s3)C2)cc1C (configuration not stated)
  u, 4, 0.8, 3.8, -1, -13, -4, 1.7
Cc1cc(C=O)c(C)n1C(C)C
  4.4, 0, 1.2, -0.5, -1, -14, -2, 2.2
Nc1c2c(nc3sc4c(c13)CCCC4)CCCC2
  -1.2, 33, 1.3, 1.3, 3, 4, 4, -3.6
c1ccc(C2NCc3ccccc3-n3cccc32)cc1 (configuration not stated)
  4.7, 5, 3.9, 1.7, 3, -11, 14, -0.5
CC(=NCc1ccco1)c1c(O)n(-c2ccccc2C)c(=O)[nH]c1=O
  1.4, -3, -0.4, -2.0, 2, 1, 5, 1.3
CNS(=O)(=O)c1ccc(-c2ccc(C=C3C(=O)NC(=O)NC3=O)o2)cc1
  1.9, -21, x, 0.1, 0, -14, -8, 0.4
O=C(c1ccc2c3c(cccc13)CC2)C1CCCN(CC2CC2)C1 (configuration not stated)
  4.6, 27, i, -4.9, -4, 9, 18, 1.3

# Next entries follow.
# Values run as follows: RanGTP-Imp inh, T cruzi inh, UCH37 DUB inh, LANA-H2A inh, Beta apoptosis, Calb FLC, B2AR ag, Bfl-1 A1 inh
Cc1ccc(S(=O)(=O)N(C)N=O)cc1
  x, x, 1.0, 3.2, -6, x, -3, 1.0
CC(=O)Nc1ccccc1C(=O)OCC(=O)c1ccc2c(c1)OCCO2
  -2.3, -10, 3.2, -0.6, 0, 9, 8, -6.0
CC/C(=N\NC(=S)Nc1ccccc1)c1c(O)[nH]c(=O)[nH]c1=O
  -1.8, -8, 2.3, -5.8, 2, 7, 1, 0.4
O=[N+]([O-])/C=C1/NCCN1Cc1ccc(Cl)nc1
  0.8, 6, 5.9, -3.5, 3, u, -6, -0.3
